# Ecoli growth = E. coli growth inhibition; Escherichia coli growth, OD600, 23 h; active compounds read low; OD600 absorbance (test concentration not listed); 330,000 compounds, 0.21% hits; AID 1053175;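 active means OD600 absorbance below the run mean of sample wells minus 3.6 SD, in any replicate, cut at about 0.56 in these data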;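 further: stock transfer was 300 nL into about 60 µL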
# B2AR ag = agonists of human beta-2 adrenergic receptor inducing internalization. Am2.2-beta2AR cells, FAP receptor internalization, flow cytometry; reference of the scale not given here. response, % (test concentration not listed). P07550. 340,000 compounds, 0.43% hits;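 active means response above a set limit, near 3 SD of response in nonfluorescent compounds, cut at about 42% in these data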;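 further: stock transfer was 100 nL into about 11 µL; a reference agonist was the positive control; negative values mostly stem from fluorescent compounds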
# Target sequence (P07550 whole entry, looked up): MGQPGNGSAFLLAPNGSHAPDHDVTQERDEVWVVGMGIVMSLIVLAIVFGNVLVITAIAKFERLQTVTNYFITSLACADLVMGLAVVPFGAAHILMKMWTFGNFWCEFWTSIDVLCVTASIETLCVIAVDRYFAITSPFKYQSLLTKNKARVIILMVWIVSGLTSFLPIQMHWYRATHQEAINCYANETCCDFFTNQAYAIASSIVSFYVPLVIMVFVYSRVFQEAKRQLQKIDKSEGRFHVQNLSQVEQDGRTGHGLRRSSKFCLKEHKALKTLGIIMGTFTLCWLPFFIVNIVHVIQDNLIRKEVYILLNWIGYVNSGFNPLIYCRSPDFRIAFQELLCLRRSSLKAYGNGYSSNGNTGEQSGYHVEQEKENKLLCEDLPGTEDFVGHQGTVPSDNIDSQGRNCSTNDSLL
# ALR inh = blocks human ALR sulfhydryl oxidase activity; inhibition, % (test concentration not listed); purified ALR, DTT oxidation, H2O2 HRP-luminol luminescence; 290,000 compounds, 3.8% hits; AID 485317; P55789;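 active means mean and each replicate at 75% or more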;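 further: stock transfer was 7.5 nL into about 7.5 µL; 0% = neutral wells and 100% = wells with inactivated enzyme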
# Target sequence (P55789 whole entry, looked up): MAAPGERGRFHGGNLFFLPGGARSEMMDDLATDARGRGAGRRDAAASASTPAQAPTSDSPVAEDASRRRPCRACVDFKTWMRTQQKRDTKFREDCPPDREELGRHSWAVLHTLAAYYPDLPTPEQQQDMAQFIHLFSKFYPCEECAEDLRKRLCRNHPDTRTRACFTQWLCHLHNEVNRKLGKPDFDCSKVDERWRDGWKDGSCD
# FGF22 binding = shifts melting point of recombinant human FGF22; calls only at 9.99 µM; 340,000 compounds, 1.5% hits; Q9HCT0; AID 651658; recombinant FGF22 thermal shift, SYPRO orange fluorescence; percent of sucrose octasulfate shift, DMSO zero;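 active means melting point raised past a set limit in the mean and every replicate; three in four hits are not shown here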
# UCH37 DUB inh = blocks the human deubiquitinase UCH37. purified proteasome/UCH37, Ub-AMC cleavage fluorescence. inhibition, % (concentration not given with the values). 330,000 compounds, 0.33% hits. AID 588478;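 active means mean of two replicates above 20%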;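 further: 0% = compound-free wells with enzyme and 100% = wells lacking proteasome; stock transfer was 100 nL into about 20 µL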
# Target sequence (Q9Y5K5 whole entry, looked up): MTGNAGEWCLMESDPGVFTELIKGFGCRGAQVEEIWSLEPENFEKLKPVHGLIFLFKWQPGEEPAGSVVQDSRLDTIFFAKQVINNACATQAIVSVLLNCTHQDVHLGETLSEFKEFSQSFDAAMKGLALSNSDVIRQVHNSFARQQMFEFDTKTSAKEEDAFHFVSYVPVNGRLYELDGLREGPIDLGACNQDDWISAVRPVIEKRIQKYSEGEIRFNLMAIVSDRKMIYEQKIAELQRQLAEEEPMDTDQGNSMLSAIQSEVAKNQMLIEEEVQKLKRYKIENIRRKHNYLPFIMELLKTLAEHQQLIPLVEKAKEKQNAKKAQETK
#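 Material: Human UCH37 enzyme supplied as purified proteasome complex | Schedule: 30 min compound-proteasome preincubation then 25 min substrate reaction, room temperature | Detection: AMC fluorescence from Ub-AMC cleavage, excitation 355 nm, emission 460 nm | Benchmarks: Wells without proteasome as full block, compound-free enzyme plus substrate as uninhibited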
# HNF4A DNA FP = change in binding of human HNF4 alpha to DNA | AID 1224865 | P41235 | activity change, % at 10 µM | HNF4a-FITC DNA binding, fluorescence polarization, 1 h | 360,000 compounds, 0.3% hits; in the data active means activity change above about 30%, passing the limit was not always enough;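 further: controls were the assay level and a saturating level of protein; the project sought stronger binding though the title names inhibitors; some compounds called inactive have numbers as strong as hits; positive values seem to mean higher polarization but the record does not say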
# rRNA inh HTS = inhibitors of bacterial rRNA selective over humanized ribosomes | E. coli WT GFP vs humanized-ribosome RFP mutants, fluorescence, 24 h; active compounds read low; DMSO median 0, no signal -100 | 350,000 compounds, 1.6% hits | GFP signal change (wild-type ribosome), % (test concentration not listed) | AID 720706;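 active means significant combined selectivity score with lowered wild-type GFP, culture density cut under 30%, mutant RFP and density less affected; inactive means any of these conditions unmet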; further: one replicate is shown; some compounds called inactive have numbers as strong as hits
# rRNA inh HTS OD600 = further read-out of rRNA inh HTS, marked with its call; OD600 change, %; measured here: OD600 growth;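 optical density of the mix in the first replicate; 0 = DMSO median and -100 = no signal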
# rRNA inh HTS RFP = second read-out of rRNA inh HTS, no call of its own (marks repeat the call); RFP signal change, %; measured here: RFP humanized mutant strains;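 first replicate; 0 = DMSO median and -100 = no signal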
# Numbers without * were called inactive; i = inactive; · = not tested or not shown. Only part of the results is shown. The share of hits here may be higher or lower than overall.
SMILES,Ecoli growth,B2AR ag,ALR inh,FGF22 binding,UCH37 DUB inh,HNF4A DNA FP,rRNA inh HTS,rRNA inh HTS OD600,rRNA inh HTS RFP
Cc1nc2ccccc2c(=O)n1NC(=O)/C=C/c1ccc(Br)cc1,0.695,16.5,12.5,i,-2.1,-2.6,-22.9,-29.1,-7.8
CC1CCN(S(=O)(=O)N2CCC(C(=O)NCc3ccc(F)cc3Cl)CC2)CC1,·,·,·,i,·,0.4,8.0,7.2,0.4
CC(C)n1c(=O)c2ccccc2n1Cc1cn(C2CCCC2)nn1,·,·,·,i,·,2.0,25.1,23.6,5.5
O=[N+]([O-])c1ccc(NS(=O)(=O)c2cccc3cccnc23)cc1,0.679,6.4,2.6,i,7.6,2.6,9.6,3.2,3.4
COc1ccc(Cl)cc1NC(=O)CN(C)C(=O)c1ccc2c(c1)CC(c1ccccc1)OC2=O (stereo not drawn),0.67,6.5,-1.7,i,3.3,-1.9,-8.2,0.9,5.5
CC1CC(=O)N(c2ccc(NCCc3ccc(O)cc3)c([N+](=O)[O-])c2)C1=O (stereo not drawn),0.698,-13.4,·,·,7.2,2.6,-21.6*,-5.0*,-4.0*
Cc1c(Cl)cccc1NS(=O)(=O)c1ccccc1,0.674,6.5,·,i,2.0,3.1,-64.4,-79.4,-25.1
Nc1c(Cl)c(Cl)nc(C(=O)N/N=C/c2ccco2)c1Cl,·,-11.3,-1.4,i,·,0.7,6.0,5.8,4.4
C=C(C)CSc1nc2nc(C)cc(C)n2n1,0.665,-33.8,-7.0,·,2.5,0.9,·,·,·
CC(C)NC(=O)c1cc(C2CCCCN2C(=O)CCCc2ccccc2)on1 (stereo not drawn),·,·,·,i,·,-0.7,4.9,5.8,1.7
CCc1nn(CCCC(=O)N(C)Cc2ccccc2)c(=O)c2cc3occc3n12,0.662,-3.2,6.6,i,3.8,1.4,-11.6,-7.8,0.5
O=C(NCC(F)(F)F)c1cc2c(c(-c3cccc(-c4ccccc4F)c3)n1)[C@@H](CCO)N(C(=O)CC1CC1)C2,·,·,·,i,·,-3.6,4.6,1.9,5.6
Cc1ccc(C(=O)N2CCSC2=S)cc1,0.665,1.4,-0.2,·,5.6,0.8,14.0,5.3,0.5
CC(=NC1CCCCC1)C1=C(O)c2ccccc2C1=O,0.676,-12.5,-27.0,·,4.7,-3.2,·,·,·
CC(=O)Nc1ccc(S(=O)(=O)Nc2nc3ccccc3nc2Sc2nncn2C)cc1,0.678,-4.3,99.2*,·,-12.6,-33.0,·,·,·

# Next part; the last 4 above are carried over.
SMILES,Ecoli growth,B2AR ag,ALR inh,FGF22 binding,UCH37 DUB inh,HNF4A DNA FP,rRNA inh HTS,rRNA inh HTS OD600,rRNA inh HTS RFP
O=C(NCC(F)(F)F)c1cc2c(c(-c3cccc(-c4ccccc4F)c3)n1)[C@@H](CCO)N(C(=O)CC1CC1)C2,·,·,·,i,·,-3.6,4.6,1.9,5.6
Cc1ccc(C(=O)N2CCSC2=S)cc1,0.665,1.4,-0.2,·,5.6,0.8,14.0,5.3,0.5
CC(=NC1CCCCC1)C1=C(O)c2ccccc2C1=O,0.676,-12.5,-27.0,·,4.7,-3.2,·,·,·
CC(=O)Nc1ccc(S(=O)(=O)Nc2nc3ccccc3nc2Sc2nncn2C)cc1,0.678,-4.3,99.2*,·,-12.6,-33.0,·,·,·
CCOc1ccc2nc(-c3ccccc3)[nH]c2c1,0.682,-8.7,-52.5,·,-112.6,-3.7,·,·,·
CC(=O)N1c2ccc(S(=O)(=O)N3CCCC(C(=O)Nc4ccc(C)cc4C)C3)cc2CC1C (stereo not drawn),0.688,-2.3,-4.1,i,3.6,-4.0,5.7,-0.3,0.3
COc1ccccc1NC(=O)C(C)Sc1nc(-c2ccccc2)cn1N (stereo not drawn),0.677,-4.0,1.5,i,5.7,1.6,-14.7,-8.5,4.0
CC(C)c1nnc(SCC(=O)NC2CCCCC2)n1C,0.671,1.9,0.1,i,2.6,1.1,4.8,10.5,-2.1
COc1ccc(OC)c2sc(NC(=O)C3CC3)nc12,0.765,-23.0,-19.4,i,-1.7,3.9,-21.6,-35.0,-5.4
CCOC(=O)C1CCN(C(=O)C2CCN(S(=O)(=O)c3ccc4c(c3)CC(C)N4C(C)=O)CC2)CC1 (stereo not drawn),0.598,9.4,-8.0,i,-1.0,-0.1,6.1,11.6,3.1
CSc1ccccc1NC(=O)c1c(Br)cnn1C,0.73,11.9,-17.5,·,2.7,1.1,·,·,·
O=C(N=Nc1c(O)n(C2OC(=O)c3ccccc32)c2ccccc12)c1ccc(O)cc1 (stereo not drawn),0.771,-2.2,7.1,·,1.6,0.4,·,·,·
CCOc1ccc2c(c1)c(N=NC(N)=S)c(O)n2C,0.751,-5.1,3.3,i,2.8,4.4,10.8,5.3,-1.6
COc1ccc(NS(=O)(=O)c2cc(C(=O)Nc3ccccc3C(=O)O)ccc2C)cc1,0.615,-2.0,9.1,·,2.0,2.9,-15.8,-15.8,3.5
C=CCn1c(C)csc1=Nc1ccc(C(=O)O)cc1,0.756,3.2,50.7,i,6.0,-0.7,16.6,-2.0,1.0
O=C1CCN(S(=O)(=O)c2ccc(Cl)cc2)CC1,0.677,-0.1,-4.5,i,4.7,-0.6,10.8,2.5,0.3
Cc1ccc(CN2C3=NCCCN3c3ccccc32)cc1,0.74,-7.2,-1.7,·,2.0,-1.8,·,·,·
Cc1cc2nc(C3CCCN(C(=O)NCc4ccccc4)C3)[nH]c2cc1C (stereo not drawn),0.681,6.9,-2.6,·,6.7,1.0,·,·,·
COc1ccc(-n2ncc3c2CC(C)(C)CC3NC(=O)CCN2CCCCC2=O)cc1 (stereo not drawn),0.625,7.2,0.2,i,1.3,-1.1,3.7,6.8,3.4
Cc1ccc(NC(=S)NC(=O)c2cccs2)cc1F,0.651,0.4,0.8,i,1.0,0.8,2.9,5.7,0.9
CC(c1ccco1)N(C(=O)c1ccccc1F)c1ccccn1 (stereo not drawn),0.656,-5.2,-14.9,i,-2.7,-10.1,14.3,10.0,-2.6
Cc1ccc(S(=O)(=O)N2C(=O)/C(=C3\SC(=S)NC3=O)c3ccccc32)cc1,0.692,·,-6.6,·,5.5,·,·,·,·
CN(CCNC(=O)c1cc2c(=O)n(C)c3ccccc3c2n1C)Cc1ccccc1,0.71,-5.5,-0.9,i,-0.1,-2.8,-13.1,-22.0,0.3
CC(Oc1ccc2ccc(=O)oc2c1)C(=O)N1CCOCC1 (stereo not drawn),0.697,0.8,0.1,i,-170.1,11.9,8.0,3.3,0.3
CCCc1nnc(NC(=O)CCCC(=O)O)s1,0.688,17.1,-16.2,·,0.6,-1.2,·,·,·
CCn1cc(CN2CCCC(C(=O)c3ccc(-c4ccccc4)cc3)C2)cn1 (stereo not drawn),0.626,1.0,-16.4,i,1.1,1.3,-16.8,-20.4,1.8
COc1ccccc1NS(=O)(=O)c1cc(NC(=O)/C=C/c2cccs2)ccc1N1CCOCC1,0.727,7.8,0.0,i,-2.8,1.6,·,·,·
COc1cccc(C(=O)NC2CCN(CC(=O)Nc3cccc(C)c3C)CC2)c1,0.691,7.1,-2.1,i,0.5,0.6,9.1,-5.1,2.7
COc1ccc(NC(=O)COC(=O)c2ccc3ccccc3n2)c(OC)c1,0.719,3.7,·,i,4.0,2.2,1.2,10.9,0.7
CCN(CC)C(=O)C(C)N(C#N)c1nc(C)cc(C)n1 (stereo not drawn),0.679,6.7,-3.1,·,3.0,-1.5,·,·,·
Cc1noc(C(=O)Nc2ccc(F)c(Cl)c2)c1Cl,0.709,4.5,1.1,i,3.8,4.7,4.2,3.0,-2.6
N#CCSc1nnc(Cc2cccs2)n1C1CCCCC1,0.715,0.4,-15.4,·,-0.5,-3.1,·,·,·
COc1ccccc1N(C)S(=O)(=O)c1ccc(C(=O)OCC(=O)N(C)c2ccccc2)cc1,0.622,5.8,-5.8,i,5.1,-11.6,-21.4,-28.6,-3.4
COc1ccc(C(=O)COc2ncnc3cc(Cl)ccc23)cc1,0.698,-5.2,-4.4,i,4.5,4.8,2.8,-0.7,-1.7

# Quoted at random: four compounds from above
SMILES,Ecoli growth,B2AR ag,ALR inh,FGF22 binding,UCH37 DUB inh,HNF4A DNA FP,rRNA inh HTS,rRNA inh HTS OD600,rRNA inh HTS RFP
CC(c1ccco1)N(C(=O)c1ccccc1F)c1ccccn1 (stereo not drawn),0.656,-5.2,-14.9,i,-2.7,-10.1,14.3,10.0,-2.6
Cc1ccc(NC(=S)NC(=O)c2cccs2)cc1F,0.651,0.4,0.8,i,1.0,0.8,2.9,5.7,0.9
Cc1ccc(S(=O)(=O)N2C(=O)/C(=C3\SC(=S)NC3=O)c3ccccc32)cc1,0.692,·,-6.6,·,5.5,·,·,·,·
CN(CCNC(=O)c1cc2c(=O)n(C)c3ccccc3c2n1C)Cc1ccccc1,0.71,-5.5,-0.9,i,-0.1,-2.8,-13.1,-22.0,0.3

# Remaining list, next part:
SMILES,Ecoli growth,B2AR ag,ALR inh,FGF22 binding,UCH37 DUB inh,HNF4A DNA FP,rRNA inh HTS,rRNA inh HTS OD600,rRNA inh HTS RFP
O=C(NCc1ccco1)c1ccc2c(c1)N(Cc1ccccc1)CCS2,0.721,10.9,97.8*,i,-237.8,6.3,-3.7,11.3,1.9
O=C(CSc1ccc(-c2ccccn2)nn1)NCc1ccc(F)cc1,0.688,-5.6,1.0,i,-0.1,2.4,-2.9,-11.6,-0.3
COc1cc(OC)nc(NC(=O)CN2CCN(c3ccc(F)cc3)CC2)n1,0.708,0.5,98.5*,i,0.3,-2.5,3.1,5.2,-6.0
COC(=O)c1ccc(CSc2ncnc3c2oc2ccccc23)o1,0.747,21.2,56.0,·,-0.8,1.1,·,·,·
COc1cc(C2CC(=O)c3cnc(NC(=O)c4ccco4)nc3C2)cc(OC)c1OC (stereo not drawn),0.694,-11.2,-79.7,i,4.6,-1.5,3.7,-6.9,-0.6
O=C1CCCN2N=C(SCC(=O)Nc3ccc(Br)cc3)SC2=N1,·,-5.9,-1.2,i,·,-3.0,8.8,14.2,-1.6
COc1ccccc1N1CCN(C2CCN(S(=O)(=O)c3ccc(NC(C)=O)cc3)CC2)CC1,0.693,-4.4,9.2,i,6.6,-4.1,0.3,0.4,2.8
O=C1CCC(C(=O)N(CCO)Cc2ccccc2)CN1CCCN1CCOCC1 (stereo not drawn),0.651,2.7,24.2,i,0.9,-0.9,4.4,9.7,0.9
CCn1cc(C(=O)OCC(=O)Nc2c(C)cccc2C)c(=O)c2ccc(C)nc21,0.489*,1.8,33.2,·,3.0,3.6,-48.0,-74.9,-10.9
CC1CC2(CCCCC2)N2C(=O)C(=O)c3cccc1c32 (stereo not drawn),0.731,10.6,11.1,i,2.9,-3.6,-5.7,4.0,-1.4
COc1ccc(C(O)c2nc(-c3cc4ccccc4o3)cs2)cc1 (stereo not drawn),·,·,·,i,·,6.2,6.8,20.1,0.9

# Printed as active in ALR inh, of those listed so far:
Compound | B2AR ag | ALR inh | FGF22 binding | UCH37 DUB inh | HNF4A DNA FP | rRNA inh HTS | rRNA inh HTS OD600 | rRNA inh HTS RFP
CC(=O)Nc1ccc(S(=O)(=O)Nc2nc3ccccc3nc2Sc2nncn2C)cc1 | -4.3 | 99.2* | · | -12.6 | -33.0 | · | · | ·
O=C(NCc1ccco1)c1ccc2c(c1)N(Cc1ccccc1)CCS2 | 10.9 | 97.8* | i | -237.8 | 6.3 | -3.7 | 11.3 | 1.9
COc1cc(OC)nc(NC(=O)CN2CCN(c3ccc(F)cc3)CC2)n1 | 0.5 | 98.5* | i | 0.3 | -2.5 | 3.1 | 5.2 | -6.0

# Screening data deposited in PubChem BioAssay by several laboratories.
